ugtP null kill: growth inhibition of ugtP-null S. aureus, primary screen, RN4220 ugtP deletion, OD600. 16 h; some inactives read as strong as hits. growth inhibition, % (test concentration not listed). 330,000 compounds, 0.54% hits. AID 1259309, 2017;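 active = z-score under -3 and OD600 up to 0.15 on both plates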;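 note: plate controls were untreated wells for no effect and antibiotic for full effect; wells of about 80 µL received 100 nL stock; the first replicate is given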
Mtb hypoxia inh: PubChem AID 1159583 | 300,000 compounds, 0.1% hits | fluorescence inhibition, % (no concentration beside the values) | M. tuberculosis hypoxia-regulated fluorescent reporter, fluorescence;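 active = 35 to 45% if threefold the growth effect, above 45% if 1.5-fold the growth effect; inactive = the rest, general growth blockers included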;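 note: wells of about 50 µL received 100 nL stock; 0% = vehicle wells and 100% = reference inhibitor wells; whole bacteria with a GFP reporter of the hypoxia response; strong numbers were not always called active; many hits fall short of the cut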
RN4220 kill: growth inhibition of S. aureus RN4220, primary screen, OD600. 330,000 compounds, 0.33% hits. 16 h. inhibition, % (test concentration not listed). AID 1259311, 2017;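 active = z-score of -3 or lower and OD600 up to 0.18 on both plates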;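 note: plate controls were untreated cells for no effect and reference antibiotic for full effect; stock transfer was 100 nL into about 80 µL; one replicate is shown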
BJeLR lethal: MLPCN primary cell-based screen for lethality selective to Ras in HRASV12 cells. BJeLR (HRASV12) viability, CellTiter-Glo ATP luminescence, 48 h; reference of the scale not given here. inhibition, % (concentration not given with the values). 300,000 compounds, 0.17% hits. AID 1554, 2009;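 active = replicate mean above 50%; inconclusive = above 50% but judged a plate artefact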;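 note: 50 nL library stock added to about 25 µL; numbers are from one replicate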
PrP 5UTR inh: inhibition of PrP 5' UTR reporter expression. inhibition, % (no concentration beside the values). AID 488862, 2010. cell-based PrP 5' UTR mRNA reporter, plate reader. 340,000 compounds, 0.35% hits;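 active = every replicate at 50% or more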;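 note: 0 = median of the neutral control wells; tested in H4 reporter cells; numbers are from one replicate; inactives centre near -14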
Bead autofluor: counter-screen for toxin protease inhibitors: compound fluorescence; AID 624483; 360,000 compounds, 3.1% hits; compound autofluorescence counterscreen, microsphere flow cytometry; hits give high values; fluorescence intensity (test concentration not listed);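 active = at least 3 SD above the mean of all compounds, about 16000 in these data; inconclusive = too few beads counted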;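 note: 100 nL of 1 mM stock went into each well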
Mtb hypoxia inh growth: recorded beside Mtb hypoxia inh, whose call it bears; growth inhibition, %; measured here: M. tuberculosis growth (absorbance);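 0% = vehicle and 100% = reference antibiotic; read after six days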
Starred values were filed as active, the others as inactive; ? = inconclusive; / = not tested or not shown. An unsorted share of the library; 3.9% or so of the library scored in one or more.

SMILES	ugtP null kill	Mtb hypoxia inh	Mtb hypoxia inh growth	RN4220 kill	BJeLR lethal	PrP 5UTR inh	Bead autofluor
CC1=C(C(N)=O)C(c2cccc(OCc3ccccc3)c2)n2nnnc2N1 (centres undefined)	8	5	7	5.8	5	-22	2397
O=C(CNC(=O)c1ccc(Cl)cc1)N/N=C/C=C/c1ccccc1	/	/	/	/	-5	-18	2141
COc1ccccc1C(=O)Nc1ccc(OCC(=O)N2CCCCC2)cc1	4	-2	5	2.7	/	-8	8350
COc1ccc(CN2CCNC(=O)C2CC(=O)NC2CCC2)c(OC)c1 (centres undefined)	10	0	0	4.0	3	-20	4801
Cc1cc(C)nc(N(C#N)CN2C(=O)c3ccccc3C2=O)n1	7	5	3	0.6	4	-22	8114
COc1ccc(OCC(=O)N/N=C\c2ccco2)cc1	/	/	/	/	4	-21	6571
Clc1ccc(CCNc2nc3ccccc3s2)cc1	27	-2	0	-2.5	-8	-22	3305
COc1ccc(-n2nc(C(=O)N3CCCCC3)c(C)c(C#N)c2=O)cc1	5	0	13	11	-1	-28	4034
NC(=S)N/N=C/c1ccc(-n2nncc2-c2ccc(Cl)cc2)cc1	/	/	/	/	-7	-16	3909
O=C1CC(c2ccco2)CC(O)=C1C=NCCN1CCNCC1 (centres undefined)	-3	-3	3	1.7	-7	-18	3864
COc1ccc(Cn2c(=S)[nH]c3ccsc3c2=O)cc1	/	/	/	/	8	9	2361
O=c1cc(-c2ccc(O)cc2)oc2c(C3OC(CO)C(O)C(O)C3O)c(O)c(C3OC(CO)C(O)C(O)C3O)c(O)c12 (centres undefined)	4	17	5	8.6	/	/	/
CCOc1ccc(NC(=O)CN(C)C(=O)Cc2n[nH]c(=O)c3ccccc23)cc1OCC	3	13	1	2.7	/	/	5442
COC(=O)Oc1ccc(C=NNS(=O)(=O)c2ccccc2)cc1OC	0	8	4	2.2	/	/	/
CC(=O)OCC(=O)C1CCC2C3CCC4CC(O)CC[C@]4(C)C3C(=O)C[C@]12C (some centres undefined)	3	1	7	2.7	/	/	/
NC(=NOC(=O)CCC1CCCCC1)c1cccc([N+](=O)[O-])c1	-8	6	10	6.9	/	/	/
COc1ccc(/C=C/C(=O)NC2CCCCCC2)cc1S(=O)(=O)N1CCOCC1	-3	1	-8	1.0	-2	-51	2467
COC(=O)c1cc(C#N)c(OC)nc1C	11	3	-5	6.6	0	-41	2126
CCOC(=O)C1CCN(CCC(=O)Nc2cccc(C)c2)CC1	12	4	5	1.9	7	-20	3975
Cc1ccc(CCNC(=O)c2nnn(-c3cccc(C)c3)c2N)cc1	15	4	3	-2.4	-6	-16	9337
COc1ccc(-c2csc(NCCc3nc4cc(Cl)c(N5CCCCC5)cc4n3CCOCCO)n2)cc1	-8	4	12	4.7	-9	-17	5401
NC(=O)COC(=O)c1cc([N+](=O)[O-])ccc1NCCO	4	8	2	0.0	-4	-22	3477
CCC1CCCCN1S(=O)(=O)c1ccc2[nH]c(=O)ccc2c1 (centres undefined)	-4	7	4	-8.2	-8	-16	5853
CC(=O)N1CCc2cc(S(=O)(=O)NCC(=O)NCc3ccc(Cl)cc3)ccc21	21	9	6	5.6	11	-10	6166
CC(=O)CC(=O)Nc1ccn(-c2ccccc2)n1	-5	3	10	3.3	-3	-24	2440
CCCC(c1nnnn1Cc1cccs1)N1CCN(C2CCCC2)CC1 (centres undefined)	11	/	/	5.3	2	-28	4587
CNC(=S)NNC(=O)c1cn(C)nc1C	9	-7	1	1.9	1	-12	3379
O=[N+]([O-])c1ccc(O)c(N=Cc2sc3ccccc3c2O)c1	22	19	-9	14	23	-25	7378
CCN=C1S/C(=C\c2cn(CC(=O)NCCOC)c3ccccc23)C(=O)N1CC	5	20	-5	0.5	-7	-20	4782
O=C(CN1CCOCC1)Nc1cc(C(F)(F)F)ccc1Cl	4	4	14	3.7	-10	-9	4784
COc1ccc(Cl)cc1N1C(=O)C2CCCN2C1c1ccc(F)cc1 (centres undefined)	4	/	/	3.9	-9	-16	5970
COC(=O)c1cc(S(=O)(=O)Nc2ccsc2C(=O)OC)oc1C	-12	-1	2	16	0	-9	4689
CC(Cc1nnc(SCC(=O)O)n1N)c1ccccc1 (centres undefined)	5	11	-3	0.9	8	/	2967
CSc1nnc2ccc(-c3ccccn3)nn12	6	8	14	2.8	10	-2	4150
Cc1nc2cc(-c3cccs3)nn2c(NCC(C)(C)CN(C)C)c1C	7	11	7	-0.4	6	-5	2094
Nc1cc(OC(=O)c2cccs2)nn1S(=O)(=O)c1ccc(F)cc1	3	/	/	-2.9	2	-12	2674
C=CC1c2cc(C)ccc2N(S(=O)(=O)c2ccc(C)cc2)C(c2ccccc2C(F)(F)F)C1(C#N)C#N (centres undefined)	9	3	-2	7.5	/	/	/
O=C(Nc1cc2c(cc1Br)OCCCO2)c1cccnc1	/	/	/	/	-8	-13	5501
O=C(Nc1cccc(S(=O)(=O)N2CCOCC2)c1)c1cc([N+](=O)[O-])ccc1N1CCOCC1	-5	-6	13	-1.3	-3	-29	5919
COc1ccc(Oc2nc3ccccc3nc2C(F)(F)F)cc1	11	5	6	8.7	1	7	23577*
COc1cccc(-c2nn[nH]n2)c1O	2	5	3	5.3	7	-7	2114
Cc1ccc(Nc2c(N)c(=O)oc3ccccc23)cc1	4	6	7	4.0	3	-32	9213
CSCc1c(C(=O)OCC(=O)c2ccc[nH]2)oc2ccccc12	10	-6	-7	3.5	/	-15	?
COc1cc(CC(=O)Oc2ccc3c(c2)OCO3)cc(OC)c1OC	4	/	/	1.4	8	-17	2952
CCOC(=O)C1CN(S(=O)(=O)c2ccc(OC)cc2)c2ccccc2O1 (centres undefined)	18	-2	-10	11	-1	-2	2846
CC(C)CC1COCCS(=O)(=O)N1Cc1ccccc1F (centres undefined)	-10	3	3	0.6	/	/	/
CC1(C)CC(N2CN(C3CCCCC3)CC2=O)CC(C)(C)N1	-7	-5	-4	-1.3	-6	-6	2256
COc1ccc(N2CC(C(=O)OCC(=O)Nc3cccc(C)c3C)CC2=O)cc1 (centres undefined)	17	11	4	3.8	-2	-15	4999
COc1ccc(N(CC(=O)NC2CCCC2)C(=O)Cn2nnc(-c3ccc(C)o3)n2)c(OC)c1	-5	-10	1	-1.0	-10	-14	6306
CCCCN(C(=O)C(C)N1C(=O)c2ccccc2C1=O)c1c(N)n(CC(C)C)c(=O)[nH]c1=O (centres undefined)	-6	10	8	-1.9	/	-11	3762

Next entries:
SMILES	ugtP null kill	Mtb hypoxia inh	Mtb hypoxia inh growth	RN4220 kill	BJeLR lethal	PrP 5UTR inh	Bead autofluor
Cc1ccc(C2C(C=Nc3c(C)n(C)n(-c4ccccc4)c3=O)=C(c3ccccc3)Oc3ccccc32)cc1 (centres undefined)	2	/	/	-3.9	-3	-12	3359
Cc1nc(C(=O)Nc2cc(Cl)ccc2Cl)nn1-c1cc(OC(C)C)c(Cl)cc1Cl	6	3	10	-1.9	-1	-4	24341*
C/C(CC(=O)NCc1ccco1)=N\NC(=O)COc1ccc(Cl)cc1Cl	/	/	/	/	0	2	4494
Cc1nc(Nc2ccc(C(=O)O)cc2)sc1-c1ccccc1	6	-11	4	1.5	0	-48	2113
N#Cc1ccccc1NC(=O)COC(=O)c1c[nH]c2ccccc12	19	3	-2	6.8	/	-8	/
CCOC(=O)Nc1ccc2nc(N3CCCCCC3)sc2c1	13	-1	10	1.8	46	-110	2878
COc1cc(C=NNc2nc(Nc3ccc(C)cc3)nc(-n3nc(C)cc3C)n2)cc(OC)c1OC	1	5	21	9.2	/	/	/
CCn1cc(Cl)c(C(=O)Nc2nc3ccccc3n2CCN2CCCCC2)n1	-3	-6	10	-1.4	-8	-11	4522
Cc1ccc(S(=O)(=O)NCc2ccccc2)cc1C(=O)N(C)CC(=O)Nc1ccccc1Br	8	9	-2	5.5	/	-10	4260
CC(NC(=O)C(C)N1CCN(Cc2ccccc2)CC1)c1ccc(F)cc1 (centres undefined)	0	-13	-17	2.5	3	-27	3988
Cc1ccc(-n2ncc3c(NCc4cccnc4)ncnc32)c(C)c1	/	/	/	/	26	-5	2644
CC(=O)c1c(C(=O)O)c2ccccc2[nH]c1=O	-2	14	1	4.5	2	-24	4294
CCn1c(SCC(=O)NC2CCCCC2)nnc1C(CO)NC(=O)c1ccccc1 (centres undefined)	2	9	1	1.6	-3	-7	4911
O=C/C(=C\Nc1ccc(Br)cc1)c1nc2ccccc2o1	-15	-11	4	-2.7	-2	-15	3756
Cc1ccc(S(=O)(=O)Oc2ccccc2/C=C2/SC(=O)NC2=O)cc1	46	-2	4	55	-1	-29	4292
O=C(CSc1nc2cc(Cl)ccc2o1)NC1CC1	1	14	14	3.7	/	-9	/
Cc1nn(CC(=O)OC(C)C(=O)Nc2ccccc2[N+](=O)[O-])c(C)c1[N+](=O)[O-] (centres undefined)	4	3	2	1.9	2	-23	1994
O=C(NCCNC(=O)C(F)(F)F)c1ccncc1	-5	-2	4	4.7	2	-12	?
CCc1ccc(/C=C2\C(=N)N3N=C(CC(=O)N4CCCCC4)SC3=NC2=O)cc1	-12	-14	2	1.0	-1	-10	5462

Some of the entries above in another layout.
Below each SMILES: ugtP null kill	Mtb hypoxia inh	Mtb hypoxia inh growth	RN4220 kill	BJeLR lethal	PrP 5UTR inh	Bead autofluor
> CCCCN(C(=O)C(C)N1C(=O)c2ccccc2C1=O)c1c(N)n(CC(C)C)c(=O)[nH]c1=O (centres undefined)
    -6	10	8	-1.9	/	-11	3762
> Cc1ccc(C2C(C=Nc3c(C)n(C)n(-c4ccccc4)c3=O)=C(c3ccccc3)Oc3ccccc32)cc1 (centres undefined)
    2	/	/	-3.9	-3	-12	3359
> Cc1nc(C(=O)Nc2cc(Cl)ccc2Cl)nn1-c1cc(OC(C)C)c(Cl)cc1Cl
    6	3	10	-1.9	-1	-4	24341*
> C/C(CC(=O)NCc1ccco1)=N\NC(=O)COc1ccc(Cl)cc1Cl
    /	/	/	/	0	2	4494
> Cc1nc(Nc2ccc(C(=O)O)cc2)sc1-c1ccccc1
    6	-11	4	1.5	0	-48	2113
> N#Cc1ccccc1NC(=O)COC(=O)c1c[nH]c2ccccc12
    19	3	-2	6.8	/	-8	/
> CCOC(=O)Nc1ccc2nc(N3CCCCCC3)sc2c1
    13	-1	10	1.8	46	-110	2878
> COc1cc(C=NNc2nc(Nc3ccc(C)cc3)nc(-n3nc(C)cc3C)n2)cc(OC)c1OC
    1	5	21	9.2	/	/	/
> CCn1cc(Cl)c(C(=O)Nc2nc3ccccc3n2CCN2CCCCC2)n1
    -3	-6	10	-1.4	-8	-11	4522
> Cc1ccc(S(=O)(=O)NCc2ccccc2)cc1C(=O)N(C)CC(=O)Nc1ccccc1Br
    8	9	-2	5.5	/	-10	4260
> CC(NC(=O)C(C)N1CCN(Cc2ccccc2)CC1)c1ccc(F)cc1 (centres undefined)
    0	-13	-17	2.5	3	-27	3988
> Cc1ccc(-n2ncc3c(NCc4cccnc4)ncnc32)c(C)c1
    /	/	/	/	26	-5	2644
> CC(=O)c1c(C(=O)O)c2ccccc2[nH]c1=O
    -2	14	1	4.5	2	-24	4294
> CCn1c(SCC(=O)NC2CCCCC2)nnc1C(CO)NC(=O)c1ccccc1 (centres undefined)
    2	9	1	1.6	-3	-7	4911
> O=C/C(=C\Nc1ccc(Br)cc1)c1nc2ccccc2o1
    -15	-11	4	-2.7	-2	-15	3756
> Cc1ccc(S(=O)(=O)Oc2ccccc2/C=C2/SC(=O)NC2=O)cc1
    46	-2	4	55	-1	-29	4292
> O=C(CSc1nc2cc(Cl)ccc2o1)NC1CC1
    1	14	14	3.7	/	-9	/
> Cc1nn(CC(=O)OC(C)C(=O)Nc2ccccc2[N+](=O)[O-])c(C)c1[N+](=O)[O-] (centres undefined)
    4	3	2	1.9	2	-23	1994
> O=C(NCCNC(=O)C(F)(F)F)c1ccncc1
    -5	-2	4	4.7	2	-12	?
> CCc1ccc(/C=C2\C(=N)N3N=C(CC(=O)N4CCCCC4)SC3=NC2=O)cc1
    -12	-14	2	1.0	-1	-10	5462
